TRPV1 potentiator – human TRPV1 potentiation; TRPV1-expressing cells, Fluo-8 calcium influx, capsaicin EC20 potentiation; host cell line not named in the record; control for the full effect not named in the record; potentiation, % at 8.33 µM; 0.02% of 320,000 active; active means potentiation above 80%; inconclusive means 30% to 80%; inactive means below 30%; note: 0% is about no effect
Target sequence (Q8NER1 whole entry, looked up): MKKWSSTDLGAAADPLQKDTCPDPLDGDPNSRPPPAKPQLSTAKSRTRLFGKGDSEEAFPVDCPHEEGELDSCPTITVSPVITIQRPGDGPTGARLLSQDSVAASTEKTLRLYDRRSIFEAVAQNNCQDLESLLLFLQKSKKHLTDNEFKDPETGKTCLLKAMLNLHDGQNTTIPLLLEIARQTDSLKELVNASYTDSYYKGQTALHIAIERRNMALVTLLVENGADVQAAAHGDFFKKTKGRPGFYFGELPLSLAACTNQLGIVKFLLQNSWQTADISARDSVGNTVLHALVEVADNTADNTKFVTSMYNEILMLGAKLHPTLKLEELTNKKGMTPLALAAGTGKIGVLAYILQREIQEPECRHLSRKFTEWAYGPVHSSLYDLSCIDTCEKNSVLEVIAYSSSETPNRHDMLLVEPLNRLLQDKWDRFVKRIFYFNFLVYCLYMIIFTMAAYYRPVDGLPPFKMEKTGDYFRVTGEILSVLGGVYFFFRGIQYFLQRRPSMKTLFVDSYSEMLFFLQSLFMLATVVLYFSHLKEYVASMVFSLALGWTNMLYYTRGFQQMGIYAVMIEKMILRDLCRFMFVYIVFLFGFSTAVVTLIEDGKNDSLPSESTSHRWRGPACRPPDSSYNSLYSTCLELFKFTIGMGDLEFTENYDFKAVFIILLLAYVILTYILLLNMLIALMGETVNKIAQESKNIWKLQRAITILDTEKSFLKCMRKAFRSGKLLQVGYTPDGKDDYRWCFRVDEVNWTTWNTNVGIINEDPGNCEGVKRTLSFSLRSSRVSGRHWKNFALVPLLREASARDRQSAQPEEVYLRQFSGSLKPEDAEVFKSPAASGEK
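Fluo-8 calcium influx in TRPV1-expressing cells, kinetic read (ex 480/em 520 nm). Compound added and read 3 min for agonist activity, followed by capsaicin at EC20 final and 2 min further read for enhancement.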
Six1-Eya2 blk – blocks human Six1 binding to Eya2 | 0.56% of 360,000 active | Q15475+O00167 | AlphaScreen GST-Six1/His-Eya2 binding, biochemical; active compounds read low; control for the full effect not named in the record | activity change, % (test concentration not listed) | AID 651725; in the data active = activity change below about -65%; inconclusive = about -30% to -65%; inactive = above about -30%; note: % is set by controls: 0 for no effect and ±100 for the full control effect
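AlphaScreen luminescence read after one hour at 37 °C in darkness. Pin-transferred compounds met GST-Six1 and His-Eya2 protein (5X stock 250 nM/500 nM) plus glutathione donor and Ni-chelate acceptor beads (5X, 50 ug/mL).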
TRPML1 blocker – blocks the human TRPML1 channel | activity change, negative = inhibition, % (concentration not given with the values) | TRPML1-inducible cells, Ca2+ dye fluorescence, FDSS; active compounds read low; inhibition of EC80 agonist-evoked calcium signal | Q9GZU1 | AID 624415 | 0.02% of 390,000 active; in the data active means activity change below about -50%; inconclusive means about -30% to -50%; inactive means above about -30%;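 note: stimulus is agonist 54-4 at its EC80 concentration; % is set by controls: 0 for no effect and ±100 for the full control effect; the text of the record puts the active cut at -80%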
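Tet-induced TRPML1-DL cells loaded with Ca8 no-wash calcium dye were read kinetically on FDSS. Compound addition was followed by EC80 agonist 54-4 (4 uM final); inhibition was read over 110 s.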
TRPML1 ag – agonists of human TRPML1 channel. Q9GZU1. TRPML1-expressing cells, Ca2+ dye fluorescence, FDSS; host cell line not named in the record; reference of the full effect not given here. 0.12% of 410,000 active. activation, % (no concentration beside the values). AID 624414; in the data active = activation above about 50%; inconclusive = about 30% to 50%; inactive = below about 30%; note: 0% is about no effect; the text of the record puts the active cut at 80%
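Calcium fluorescence on an FDSS kinetic reader gave the read-out. Tet-induced TRPML1-DL cells were plated overnight, dye-loaded (Ca8 with quencher, 45-90 min, room temperature, dark), then read 110 s after compound addition, and again 110 s after 4uM final 54-4 (EC80).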
D2 potentiator – potentiates the human D2 dopamine receptor allosterically | P14416 | DiscoveRx D2 beta-arrestin cells, luminescence, 90 min; 100% = 57 uM dopamine signal | potentiation, % (concentration not given with the values) | 0.23% of 360,000 active; active = potentiation of 50% or more; inconclusive = 30% to 50%; inactive = 30% or less;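 note: compound concentration not given in the record; tested on top of an EC20 dose of dopamine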
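PathHunter beta-arrestin assay in DiscoveRx D2 cells. Compounds were added with an EC20 of dopamine (50 nM final) for 90 min at 37 deg C. Luminescence was read 1 h after detection reagent, with 57 uM dopamine as the EC100 control.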
CtBP-E1A blk – inhibitors of CtBP/E1A interaction | AlphaScreen GST-E1A/His-CtBP binding, 1536-well; active compounds read low; control for the full effect not named in the record | activity change, % (test concentration not listed) | 0.49% of 340,000 active | AID 651724; in the data active means activity change below about -65%; inconclusive means about -30% to -65%; inactive means above about -30%; note: % is set by controls: 0 for no effect and ±100 for the full control effect
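AlphaScreen with 125 nM GST-E1A and 125 nM His-CtBP (5X stocks) in Tris pH 8.0, 300 mM NaCl, BSA, Tween 20, TCEP. Compounds preincubated 2 h at 37 deg C, then glutathione donor/nickel acceptor beads added for 1 h at 37 deg C in dark.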
* = called active by the depositor; ? = inconclusive; · = not tested or not shown; & = joins results of further samples.

The opening 3 records as a preview:
SMILES	TRPV1 potentiator	Six1-Eya2 blk	TRPML1 blocker	TRPML1 ag	D2 potentiator	CtBP-E1A blk
CCN(CC)CCNc1nc(-c2ccc(OC)cc2)c(-c2ccc(OC)cc2)s1	17	2	-4	0.7	-20	-13
CC1Cc2ccccc2N1C(=O)Cn1cnc2ccccc21 (stereo not drawn)	9	3	6	0.5	-8	-21
COc1ccc(OC)c(C(=O)/C=C/c2ccccc2C(F)(F)F)c1	·	-8	77	2.6	-13	-17

The listing, previewed entries included:
SMILES	TRPV1 potentiator	Six1-Eya2 blk	TRPML1 blocker	TRPML1 ag	D2 potentiator	CtBP-E1A blk
CCN(CC)CCNc1nc(-c2ccc(OC)cc2)c(-c2ccc(OC)cc2)s1	17	2	-4	0.7	-20	-13
CC1Cc2ccccc2N1C(=O)Cn1cnc2ccccc21 (stereo not drawn)	9	3	6	0.5	-8	-21
COc1ccc(OC)c(C(=O)/C=C/c2ccccc2C(F)(F)F)c1	·	-8	77	2.6	-13	-17
Cc1cc(C)cc(C(=O)NC(=S)Nc2ccc3c(c2)OCCO3)c1	4	?	-17	-0.8	-6	-2
O=C(CC(Cc1ccccc1)C(=O)O)NCCc1ccc2c(c1)OCO2 (stereo not drawn)	10	2	2	0.3	-5	4
C=CCn1c(SCc2nc3sc4c(c3c(=O)[nH]2)CCCC4)nc2ccccc2c1=O	?	-7	-27	-0.8	9	-5
COc1ccccc1C/C(N)=N/OC(=O)COc1cccc2ccccc12	2	39	3	4.4	-9	61
COc1nc(N(C)C)nc(N2CC(=O)N(CCNS(=O)(=O)c3ccc(C)cc3)C2=N)n1	10	2	29	0.2	-3	6
CCN1CCN(C(=O)C2CCN(C(=O)Nc3ccccc3)CC2)CC1	-21	-1	28	1.0	-2	2
COc1ccc(NC(=O)COC(=O)C2CCCN2C(=O)OC(C)(C)C)cc1Cl (stereo not drawn)	·	-1	-6	-0.5	-6	8
CCCOC(=O)c1ccc(NC(=O)C(=O)NCC2CCCO2)cc1 (stereo not drawn)	-14	9	19	1.1	6	-20
CC(C)(C)OC(=O)NCCC(=O)N/N=C/c1ccc2nccnc2c1	7	-18	-12	0.2	-4	-20
CC(=O)Nc1cccc(-c2nnc(SCc3ccccc3C#N)n2C)c1	?	3	-5	0.5	-1	2
CCOc1ccc(NC(=O)COC(=O)c2cc(S(=O)(=O)N3CCCC3)ccc2C)cc1	4	-11	1	0.6	-1	-1
CC(C)n1c(N2CCN(C(=O)c3cccs3)CC2)nc2ccccc21	18	-2	-8	-1.2	3	4
Cc1ccc(C)c(N2CCN(S(=O)(=O)c3ccc4c(c3)oc(=O)n4C)CC2)c1	0	1	-10	-0.4	-7	8
O=C1c2ccccc2C(=O)N1CCn1nc(Cl)nc1Cl	-7	7	-6	0.1	-20	-12
CC(=O)c1ccc(NS(=O)(=O)c2ccc([N+](=O)[O-])cc2)cc1	·	8	-6	0.1	-2	1
NC(=S)NN=C(c1ccccc1)c1ccccc1	-9	-22	·	·	-15	-4
CCCCOc1ccc2ccccc2c1C=O	-9	33	37	-0.3	-8	37
CN(C)C(=O)c1cc2cc([N+](=O)[O-])ccc2s1	3	0	6	0.4	-15	3
Cc1cc(C)cc(OCC(=O)N2CCN(c3ncccn3)CC2)c1	·	1	7	-0.2	-7	9
COc1ccc(N2CCN(C(=O)/C=C/[C@H]3O[C@@H](n4ccc(=O)[nH]c4=O)[C@H](O)[C@@H]3O)CC2)cc1	·	9	-18	0.2	-2	6
COc1cc(-c2nc3cnccn3c2Nc2ccc(C(C)C)cc2)ccc1O	10	2	1&5	2.3&-0.3	-8	4
CCNS(=O)(=O)c1ccc(CCC(=O)N2CCC(C)CC2)cc1	-15	0	22	0.7	0	13
CCN(CC)CCNC(=O)c1ccc(Sc2ccc(C)cc2)c(NC(C)=O)c1	-4	2	-18	-0.5	-12	-10
COC(=O)c1c(-c2ccccc2)c[nH]c1C	5	21	1	1.1	0	49
O=C1CC(C(=O)NCc2ccccc2)N=C(N2CCCCC2)N1 (stereo not drawn)	-3	1	-4	-0.5	-7	1
Cc1cccc(C)c1NC(=O)C1c2ccccc2OCC(=O)N1CCc1ccccc1 (stereo not drawn)	·	8	·	0.5	·	-15
O=C(N/N=C\C=C\c1ccc2c(c1)OCO2)c1cccnc1	-17	-5	5	-0.2	-9	·
CC(C(=O)NCC1(c2ccccc2)CCOCC1)N1CCOCC1 (stereo not drawn)	-3	8	-7	0.5	3	20
Cc1cc(/C=C(\C#N)C(=O)Nc2ccccc2)c(C)n1-c1ccc2c(c1)OCO2	16	-12	-2	0.9	-13	1
NS(=O)(=O)c1ccc(NC(=O)C2(c3ccccc3)CCCC2)cc1	-11	4	39	-0.1	-7	2
O=C(NC1CCN(Cc2ccccc2)CC1)c1ccccc1NS(=O)(=O)c1ccc(F)cc1	·	-16	-8	2.5	-40	1
COc1ccc(N(C(=O)C2COc3ccccc3O2)C(C(=O)NC2CCCCC2)c2ccccc2)cc1OC (stereo not drawn)	-1	-4	?	1.3	-3	-8
CCn1c(SCC(=O)N2CCOCC2)nc2c([nH]c3ccccc32)c1=O	11	7	4	-0.3	-1	-2
C/C(=N\NC(=O)Cc1ccc(Cl)cc1)c1ccccn1	·	-85*	12	1.4	-32	-4
COc1ccc(NC(=O)NC(C)c2ccc3c(c2)OCO3)c(OC)c1 (stereo not drawn)	2	11	1	-0.5	-14	3
CCCCn1nnc(NC(=O)c2ccc(-c3ccccc3)cc2)n1	3	0	4	0.3	-9	6
CCN(C(=S)NC(=O)c1ccco1)c1cccc2ccccc12	·	-3	-2	0.3	-1	1
COc1ccc(N(CC(=O)N/N=C/c2ccc(N(C)C)cc2)S(=O)(=O)c2ccccc2)cc1	1	-28	-3	2.4	-6	-29
Cc1ccnc2nc(C(=O)OCC(=O)N(CC(C)C)C3CCS(=O)(=O)C3)nn12 (stereo not drawn)	-4	-3	-1	-0.5	-3	7
COc1ccc(CCNC(=O)Cc2ccc3c(c2)OCO3)cc1OC	4	17	6	-0.2	-3	-20
C=CCSC1=C(C#N)C(c2cccc(OC)c2)CC(=O)N1 (stereo not drawn)	-1	1	-4	-0.3	-14	-1
CSc1nc(N)nc(SCC(=O)c2ccc(C)cc2)c1C#N	23	11	37	0.1	6	9

Single records, as listed above. Screens in order: TRPV1 potentiator | Six1-Eya2 blk | TRPML1 blocker | TRPML1 ag | D2 potentiator | CtBP-E1A blk
CCOc1ccc(NC(=O)COC(=O)c2cc(S(=O)(=O)N3CCCC3)ccc2C)cc1 is listed with 4 | -11 | 1 | 0.6 | -1 | -1
CCN(C(=S)NC(=O)c1ccco1)c1cccc2ccccc12 is listed with · | -3 | -2 | 0.3 | -1 | 1
COc1ccc(NC(=O)COC(=O)C2CCCN2C(=O)OC(C)(C)C)cc1Cl (stereo not drawn) is listed with · | -1 | -6 | -0.5 | -6 | 8
COc1ccccc1C/C(N)=N/OC(=O)COc1cccc2ccccc12 is listed with 2 | 39 | 3 | 4.4 | -9 | 61
CCCOC(=O)c1ccc(NC(=O)C(=O)NCC2CCCO2)cc1 (stereo not drawn) is listed with -14 | 9 | 19 | 1.1 | 6 | -20

(cont.)
SMILES	TRPV1 potentiator	Six1-Eya2 blk	TRPML1 blocker	TRPML1 ag	D2 potentiator	CtBP-E1A blk
O=C(OCc1ccc([N+](=O)[O-])cc1)c1ccc(N2CCCC2)c([N+](=O)[O-])c1	-4	-1	-4	1.6	15	0
O=C(NN=Cc1ccccc1Cl)c1cccc2ccccc12	·	9	-3	0.0	-12	10
Cc1cc(CNC(=O)C2(C(F)(F)F)C/C(=C\Cc3ccccc3)CCCO2)nn1C (stereo not drawn)	·	3	0&-7	0.4&0.9	-2	8
C[C@H](CO)N1C[C@H](C)[C@H](CN(C)S(=O)(=O)c2cn(C)cn2)OCc2cnnn2CCCC1=O	·	4	-11	-0.7	-3	2
COc1cccc(NC(=O)CSc2ccc3nnc(CCNC(=O)c4ccccc4)n3n2)c1	-6	0	1	-0.3	-6	-3
COC1CCN(Cc2c(C(=O)N3CCc4ccccc4C3)nc3ccc(Cl)cn23)CC1	-15	6	-3	0.1	-6	-1
Cc1oc2nc(SCCCC(=O)NCCO)nc(N)c2c1C	14	5	0	-0.8	-11	9
Cc1csc2nc(CSc3nc4ccccc4o3)cn12	-10	-8	-4	-0.8	-15	-20
CCN(CC)S(=O)(=O)c1cc(C)ccc1SC	-8	9	11	1.9	23	4
COc1ccc(OC)c(NC(=S)NCc2ccccc2OC)c1	-1	-21	15	1.9	-8	-15
CCCN(CCC)S(=O)(=O)c1ccc(C)cc1	-8	2	-6	-0.4	-1	4
Cc1ccc(Cn2cc(CN3CC(N4CCCC4)CS3(=O)=O)nn2)cc1 (stereo not drawn)	·	6	·	-0.4	·	4
CCOc1ccc(C(=O)NCC(=O)OCC(=O)N2CCCCC2)cc1	0	-1	1	-0.1	-6	-1
c1coc(Cn2c(SCc3nc4ccccc4[nH]3)nnc2-c2cnccn2)c1	4	-4	-6	-1.2	-18	-8
CCC1(c2ccccc2)NC(=O)N(CC#N)C1=O (stereo not drawn)	5	3	0	0.9	-5	-2
CC(=O)C[C@@H](O)CC(=O)[C@H]1OC(=O)[C@@H](C)C/C=C\Cc2ccccc21	·	9	-5	-0.8	3	7
Cc1ccccc1C1NC(c2ccccc2C)C([N+](=O)[O-])C(C)(C)C1[N+](=O)[O-] (stereo not drawn)	-5	-3	28	3.2	-1	-18
COc1ccccc1NC(=O)COC(=O)C1CC(=O)N(c2ccc3c(c2)OCCO3)C1 (stereo not drawn)	·	-2	-12	3.8	0	9
COCCn1c(=O)[nH]c2cc(C(=O)N3CCN(c4cccc(C(F)(F)F)c4)CC3)ccc2c1=O	5	1	3	-0.8	-11	-2
CN1C[C@@H]2[C@@H]3C(=O)N(Cc4ccccc4)C(=O)[C@@H]3[C@](Cc3ccccc3)(C1=O)N2C(=O)c1ccc(C(F)(F)F)cc1	·	-1	-9	0.2	7	0
O=S1(=O)CCOC[C@H](Cc2ccccc2)N1Cc1ccc(F)cc1	·	15	15	1.4	-11	·
Cc1cc(C)nc(SCc2csc(N)n2)n1	8	-3	7	-1.1	-5	-2
CC(=O)Nc1nc(C2COc3ccccc3O2)cs1 (stereo not drawn)	-8	6	-3	0.3	-27	7
CCn1ccnc1CN1CCc2c([nH]c3ccccc23)C1CC(C)C (stereo not drawn)	2	-27	62	0.9	-5	-22
CCOc1ccc(/C=N/OCC(=O)NC(c2ccccc2)c2ccccc2)cc1	-6	-13	-7	6.9	-10	-14
O=C(c1ccc(C(F)(F)F)cc1)N1CCN(S(=O)(=O)c2ccc3c(c2)OCCCO3)CC1	-2	9	7	3.2	2	-14
O=C(Nc1ccc(NC(=O)c2cc([N+](=O)[O-])ccc2N2CCOCC2)cc1)c1cccs1	1	-12	-13	-0.5	-16	?
O=S(=O)(Cc1ccccc1)N1CCN(C2Cc3ccccc3C2)CC1	-8	4	3	0.4	-13	5
C#CCOCCOCCOCCNc1nc(N2CCN(C(=O)[C@H](C)n3cc(CCC(=O)O)nn3)CC2)nc(N2CCN(C(=O)[C@H](C)n3cc(CCC(=O)O)nn3)CC2)n1	·	6	-28	1.7	0	8
Cc1cc(NC(=O)CCC(=O)N(CC(=O)NC2CCCC2)c2ccc3c(c2)OCCO3)no1	-17	7	53	0.0	3	0
